Screens as filed in PubChem BioAssay.
Gal4-VP16 FLuc: inhibits Gal4-VP16 luciferase reporter, ROR gamma counter-screen. Drosophila S2 Gal4-VP16 UAS-luciferase, luminescence, 20 h. Potency, µM (titrated, usually from 53.6 µM), without a hit: top-dose activity, negative = inhibition, most hits filed as inhibitors. hit rate 3.5% among 310,000. AID 2546;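 also: Gal4-VP16 expression switched on by copper sulfate through the metallothionein promoter; potency is read from the fitted curve at half-maximal effect; % is scaled to controls: 0 for no effect and ±100 for the full control effect; nearly all actives have a fitted effect of over 50% in size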
BRCA1 expr up: activators of BRCA1 expression | Potency, µM (top dose mostly 46.1 µM), for inactives: at the top dose activation, hits mostly activators | hit rate 1.1% among 380,000 | MCF7-BRCA1-FFLuc reporter, luminescence, 48 h; response scale: scaled: vehicle 0%, 10 µM genistein 100% | AID 624202; also: potency is read from the fitted curve at half-maximal effect; nearly all actives have a fitted effect of over 80% in size; some results filed as inactive show a strong effect at the top dose
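MCF7 cells carrying a BRCA1-firefly luciferase reporter (2000 cells/well, phenol-red free MEM) were attached for 2 h at 37 °C, then given compounds for 48 h. Luminescence was read 15 min after luciferase reagent; activity normalized to genistein (10 microM) and DMSO.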
Menin-MLL TR inh: inhibitors of human menin-MLL interaction, mutant MLL peptide; Menin + Texas Red MLL mutant peptide, fluorescence polarization; O00255; Potency, µM (top dose mostly 61.6 µM), inactives show at the top dose FP activity change, negative = inhibition, most hits filed as inhibitors; hit rate 0.23% among 270,000; active = well fitted inhibition curve with a large enough effect in the polarisation, with a control signal flat, not every such curve was filed as active; the % refers to the polarisation; also: potency is read from the fitted curve at half-maximal effect; % of control where 0% means no effect; many of its hits are not listed in these tables
Target sequence (O00255 whole entry, looked up): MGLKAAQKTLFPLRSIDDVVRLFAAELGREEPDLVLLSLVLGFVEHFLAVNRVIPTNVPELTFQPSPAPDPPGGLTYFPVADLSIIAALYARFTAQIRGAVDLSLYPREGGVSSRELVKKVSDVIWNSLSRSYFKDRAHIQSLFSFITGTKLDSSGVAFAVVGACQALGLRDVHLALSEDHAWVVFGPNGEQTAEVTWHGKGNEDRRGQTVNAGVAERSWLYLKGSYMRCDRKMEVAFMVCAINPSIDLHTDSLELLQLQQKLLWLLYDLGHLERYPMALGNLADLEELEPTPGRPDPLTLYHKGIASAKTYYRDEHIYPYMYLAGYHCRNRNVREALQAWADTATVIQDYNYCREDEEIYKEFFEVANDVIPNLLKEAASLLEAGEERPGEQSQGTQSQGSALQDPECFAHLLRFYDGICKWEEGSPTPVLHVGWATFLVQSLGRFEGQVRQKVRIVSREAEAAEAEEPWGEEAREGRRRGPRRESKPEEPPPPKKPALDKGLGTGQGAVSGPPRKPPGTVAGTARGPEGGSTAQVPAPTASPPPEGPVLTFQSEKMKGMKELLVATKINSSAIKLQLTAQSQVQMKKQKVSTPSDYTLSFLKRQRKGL
NPC1 promoter act: NPC1 promoter activation; Potency, µM (top dose mostly 9.22 µM), without a hit: top-dose activation, hits mostly activators; Huh7 NPC1 promoter luciferase reporter, 24 h; hit rate 2.4% among 320,000;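 also: potency is read from the fitted curve at half-maximal effect; % of control where 0% means no effect; nearly all actives have a fitted effect of over 60% in size; reporter is driven by a mutant NPC1 promoter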
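Stably transfected Huh7 (NPC1 promoter→luciferase), 1500 cells/well in Opti-MEM + 10% FBS, 2 h settle, then compound 24 h at 37 °C. Luminescence after 10 min with Amplite reagent.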
Giardia kill: kills Giardia lamblia; Giardia lamblia trophozoite viability; activity change, % at 7.66 µM, hits read low; hit rate 0.15% among 340,000; AID 540267; in the data active = activity change below about -80%;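 also: parasites exposed to compound for two days anaerobically before the ATP read; % is scaled to controls: 0 for no effect and ±100 for the full control effect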
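Anaerobic 48 hrs incubation at 37 deg C of 100 trophozoites/well with test compounds; ATPLite 1-Step luminescence, 15-30 min RT, reports cellular ATP as viability.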
PKM2 activator: increases activity of human pyruvate kinase M2; purified PKM2, Kinase-Glo ATP luminescence, activation; response scale: 0% is enzyme alone, no compound; P14618; AID 1631; Potency, µM (highest dose often 57.5 µM), without a hit: at the top dose activation, most hits filed as activators; hit rate 0.34% among 260,000; also: potency is read from the fitted curve at half-maximal effect; % is scaled to controls: 0 for no effect and ±100 for the full control effect; nearly all actives have a fitted effect of over 55% in size
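ATP formation by purified human PK-M2, quantified via coupled luciferase luminescence after 1 h at room temperature with 0.1 mM ADP and 0.5 mM PEP final.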
Starred values were filed as active, the others as inactive; nt = not tested or not shown; & = joins results of further samples; [ ] = remark or other dose. Unless noted, calls follow the shape of the dose curve; as a rule, active = well fitted curve in the direction sought with a large enough effect; inconclusive = small, poorly fitted or top-dose-only effect, or another doubt; inactive = no such curve, though single readings can be large; an effect the other way counts as inactive or inconclusive. This is a subset; count on the stated rates, not on these rows.

Letters – A = Gal4-VP16 FLuc; B = BRCA1 expr up; C = Menin-MLL TR inh; D = NPC1 promoter act; E = Giardia kill; F = PKM2 activator
Nc1ncn([C@@H]2O[C@H](CO)[C@@H](O)[C@H]2O)c(=O)n1
  A: -18.4%&-16.3% | B: 1.6%&-20.4% | C: -3.4%&8.5% | D: -25.2%[46.1 µM] | E: -17.5 | F: nt

CC(=O)Oc1c(C)c(C)c2c(c1C)CC[C@@](C)(CCC[C@H](C)CCC[C@H](C)CCCC(C)C)O2
  A: -2.4% | B: 6.4% | C: -10.7% | D: 0.6% | E: -3.8 | F: nt

On1nnc2ccccc21
  A: -1.1% | B: 0.0% | C: nt | D: 0.7% | E: 2.8 | F: -2.2%

O=C(OCc1ccccc1)c1ccccc1O
  A: 26.2% | B: 3.5% | C: nt | D: nt | E: 2.7 | F: nt

COC(=O)C1=C(C)NC(C)=C(C(=O)OCCN(C)Cc2ccccc2)[C@H]1c1cccc([N+](=O)[O-])c1
  A: 20.9%[17 µM] | B: nt | C: 26.2%[24.8 µM] | D: nt | E: nt | F: nt

O=C(NC[C@@H]1CCCCN1)c1cc(OCC(F)(F)F)ccc1OCC(F)(F)F
  A: -0.2%[17 µM] | B: nt | C: -18.2%[24.8 µM] | D: nt | E: nt | F: nt

O=S(=O)(O)Oc1c[nH]c2ccccc12
  A: nt | B: nt | C: nt | D: 23.8% | E: nt | F: nt

CN/C(=C\[N+](=O)[O-])NCCSCc1ccc(CN(C)C)o1
  A: -12.8% | B: 4.1%&3.1% | C: 17.6% | D: -4.4%[46.1 µM] | E: -9.6 | F: nt

Some of these compounds in order of heavy-atom count, low to high.
Letters – A = Gal4-VP16 FLuc; B = BRCA1 expr up; C = Menin-MLL TR inh; D = NPC1 promoter act; E = Giardia kill; F = PKM2 activator
On1nnc2ccccc21
  A: -1.1% | B: 0.0% | C: nt | D: 0.7% | E: 2.8 | F: -2.2%

CN/C(=C\[N+](=O)[O-])NCCSCc1ccc(CN(C)C)o1
  A: -12.8% | B: 4.1%&3.1% | C: 17.6% | D: -4.4%[46.1 µM] | E: -9.6 | F: nt

O=C(NC[C@@H]1CCCCN1)c1cc(OCC(F)(F)F)ccc1OCC(F)(F)F
  A: -0.2%[17 µM] | B: nt | C: -18.2%[24.8 µM] | D: nt | E: nt | F: nt

Compounds listed so far containing nitrogen in an aromatic ring:
Letters – A = Gal4-VP16 FLuc; B = BRCA1 expr up; C = Menin-MLL TR inh; D = NPC1 promoter act; E = Giardia kill; F = PKM2 activator
Nc1ncn([C@@H]2O[C@H](CO)[C@@H](O)[C@H]2O)c(=O)n1
  A: -18.4%&-16.3% | B: 1.6%&-20.4% | C: -3.4%&8.5% | D: -25.2%[46.1 µM] | E: -17.5 | F: nt

On1nnc2ccccc21
  A: -1.1% | B: 0.0% | C: nt | D: 0.7% | E: 2.8 | F: -2.2%

O=S(=O)(O)Oc1c[nH]c2ccccc12
  A: nt | B: nt | C: nt | D: 23.8% | E: nt | F: nt
